# From PubChem BioAssay
# HNF4A DNA FP – change in binding of human HNF4A to DNA, primary screen, biochemical, fluorescence polarization, FITC-DNA; AID 1224865, 2016; 1 h; activity change, % at 10 µM; actives 0.3% (n = 360,000); in the data active means activity change above about 30%, passing the limit was not always enough;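 further: controls were the assay level and a saturating level of protein; the project sought stronger binding though the title names inhibitors; some compounds called inactive have numbers as strong as hits; positive values seem to mean higher polarization but the record does not say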
# Target sequence (P41235 whole entry, looked up): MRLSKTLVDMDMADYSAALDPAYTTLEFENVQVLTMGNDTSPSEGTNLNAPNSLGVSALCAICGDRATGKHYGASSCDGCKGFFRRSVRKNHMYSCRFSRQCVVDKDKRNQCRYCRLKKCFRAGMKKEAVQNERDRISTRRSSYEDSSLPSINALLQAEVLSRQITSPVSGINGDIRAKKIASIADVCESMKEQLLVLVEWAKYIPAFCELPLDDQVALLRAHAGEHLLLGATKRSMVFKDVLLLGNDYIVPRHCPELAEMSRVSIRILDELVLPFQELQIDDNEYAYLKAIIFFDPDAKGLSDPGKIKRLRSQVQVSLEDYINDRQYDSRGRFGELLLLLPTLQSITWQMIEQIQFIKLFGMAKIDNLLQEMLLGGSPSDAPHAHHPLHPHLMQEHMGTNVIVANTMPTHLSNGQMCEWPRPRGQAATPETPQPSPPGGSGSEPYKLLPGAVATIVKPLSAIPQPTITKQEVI
# B2AR ag – beta2AR agonists driving receptor internalization, primary screen, cell-based, FAP fluorogen, flow cytometry | Am2.2-beta2AR cells; reference of the scale not given here | response, % (concentration not given with the values) | Beta-2 adrenergic receptor (Homo sapiens), P07550 | actives 0.43% (n = 340,000) | AID 504454, 2011;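 active means response above a set limit, near 3 SD of response in nonfluorescent compounds, cut at about 42% in these data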;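 further: stock transfer was 100 nL into about 11 µL; a reference agonist was the positive control; negative values mostly stem from fluorescent compounds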
# Target sequence (P07550 whole entry, looked up): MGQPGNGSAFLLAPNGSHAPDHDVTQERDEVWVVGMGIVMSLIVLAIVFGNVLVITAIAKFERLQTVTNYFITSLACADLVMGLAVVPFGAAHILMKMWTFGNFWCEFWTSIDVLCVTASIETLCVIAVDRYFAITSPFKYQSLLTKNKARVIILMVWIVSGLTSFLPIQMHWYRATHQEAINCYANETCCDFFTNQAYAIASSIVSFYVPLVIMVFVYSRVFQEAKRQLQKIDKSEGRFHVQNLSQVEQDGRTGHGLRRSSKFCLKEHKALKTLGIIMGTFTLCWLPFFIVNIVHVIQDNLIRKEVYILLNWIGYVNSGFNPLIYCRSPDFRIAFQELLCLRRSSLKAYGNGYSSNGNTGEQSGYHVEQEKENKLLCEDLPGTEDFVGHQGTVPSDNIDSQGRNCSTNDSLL
# Calb FLC – C. albicans growth inhibition with fluconazole, primary screen, CaCi-2 strain, Alamar Blue fluorescence. C. albicans CaCi-2 (fluconazole-resistant clinical isolate) + fluconazole, 48 h. growth inhibition, % (test concentration not listed). actives 0.57% (n = 300,000). AID 1979, 2009;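 active means most replicates above 75%; inconclusive means exactly half above 75%; inactive means most below 75%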;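 further: all wells also contain fluconazole at 8 µg/ml as a sub-toxic cotreatment; 0% = median of DMSO wells and 100% = median of geldanamycin control wells; wells of about 8 µL received 7.5 nL stock; the first replicate is given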
# Vif TR-FRET – inhibitors of Vif binding to APOBEC3G peptide, primary screen, biochemical, TR-FRET, GST-Vif 1-94, biotin-A3G peptide, dose response retest (AID 1117319) | TR-FRET GST-Vif / biotin-A3G peptide binding; higher % means a stronger effect; test concentration not given here; strong numbers were not always called active | inhibition, %, or IC50 in µM where a hit was titrated | actives 0.57% (n = 260,000);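 active means above the screen mean plus three standard deviations and confirmed in dose response; inconclusive means results disagree or hit not tested in dose response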;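 further: Vif residues 1-94 fused to GST binding biotinylated APOBEC3G peptide 110-148; 0% = full assay without inhibitor and 100% = GST in place of GST-Vif; retest series ran down from 100 µM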
# RanGTP-Imp inh – inhibitors of RanGTP-importin-beta interaction, primary screen, biochemical, FRET, CFP-Ran, YFP-importin-beta, homogeneous. actives 1.1% (n = 300,000). inhibition, % (concentration not given with the values). cell-free CFP-Ran/YFP-importin-beta FRET ratio. Ran GTPase (GTP-bound) - importin-beta complex;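 active means most replicates above 15%; inconclusive means exactly half above 15%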;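 further: 0% = DMSO wells and 100% = Ran loaded with GDP instead of GTP; wells of about 40 µL received 100 nL stock; the first replicate is given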
# ALR inh – inhibitors of human ALR sulfhydryl oxidase, primary screen, biochemical, H2O2 detection, HRP-luminol luminescence, single point. inhibition, % (no concentration beside the values). purified ALR, DTT oxidation. actives 3.8% (n = 290,000);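 active means mean and each replicate at 75% or more; inconclusive means only one of the two met; inactive means neither met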;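 further: stock transfer was 7.5 nL into about 7.5 µL; 0% = neutral wells and 100% = wells with inactivated enzyme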
# Target sequence (P55789 whole entry, looked up): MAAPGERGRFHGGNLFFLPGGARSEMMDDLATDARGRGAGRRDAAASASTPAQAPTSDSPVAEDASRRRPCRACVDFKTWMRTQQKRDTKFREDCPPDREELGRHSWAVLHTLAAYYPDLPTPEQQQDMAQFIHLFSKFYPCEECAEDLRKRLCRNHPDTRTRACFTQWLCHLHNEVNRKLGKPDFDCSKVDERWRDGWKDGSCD
# LANA-H2B inh – blockers of LANA interaction with H2A/H2B – biochemical, FP readout, HTS, primary screen. cell-free LANA-H2A/H2B peptide, fluorescence polarization. AID 2629, 2010. inhibition, % (no concentration beside the values). actives 0.6% (n = 320,000); in the data active means inhibition mostly above about 10%, no sharp cut-off; inactive means mostly below about 6.7%;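 further: stock transfer was 7.5 nL into about 10 µL; 0% = median of vehicle wells and 100% = median of positive control wells; one replicate is shown; the record names a cut of 25% in any replicate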
# * hit, by the source's call; i = inactive; ? = inconclusive; . = not tested or not shown; & = joins results of further samples.
# The opening 9 records (preview)
structure | HNF4A DNA FP | B2AR ag | Calb FLC | Vif TR-FRET | RanGTP-Imp inh | ALR inh | LANA-H2B inh
O=C(NCCOC(=O)c1c(F)cccc1Cl)c1c(F)cccc1Cl | 6.2 | -7 | 3 | -3% | ? | -7 | 0.4
CCC1CN(C(=O)NCc2ccc(F)cc2)c2cc(Cl)ccc2O1 (stereo not given) | -0.2 | 12 | -2 | -4% | 0.3 | -1 | 1.8
CCOC(=O)N1CCN(C(=O)c2ccc(OCC)c(OCC)c2)CC1 | 0.1 | 10 | 5 | -4% | 3.1 | -13 | -1.4
COc1ccc(-c2noc(C3CCCN(C(=O)c4cccc(F)c4)C3)n2)cc1 (stereo not given) | 6.2 | 0 | -4 | . | -15 | -10 | 1.5
CCN(CC)c1nc(N)c2c(N)n(-c3ccccc3C)c(=S)c(C#N)c2c1C#N | 6.9 | 7 | -7 | -3% | 1.2 | 22 | 1.1
O=C(Nc1nnc(-c2ccccc2Cl)s1)C1CCN(S(=O)(=O)c2ccc(Cl)cc2)CC1 | 2.4 | -15 | 3 | -7% | -2.9 | -4 | -2.5
O=C(/C=C/c1ccccc1)NCCc1c[nH]c2ccccc12 | 2.2 | 2 | 16 | . | 0.2 | -3 | -0.9
COC(=O)c1ccc(NC(=S)NC(=O)c2c(-c3ccccc3)noc2C)cc1 | 8.3 | -5 | 26 | . | 1.6 | 4 | -0.5
O=C(COc1cccc(Cl)c1)N/N=C\c1cc2ccccc2nc1Cl | 1.2 | -2 | ? | 10% | 1.8 | -3 | 6.1

# All compounds of this part, from the first entry:
structure | HNF4A DNA FP | B2AR ag | Calb FLC | Vif TR-FRET | RanGTP-Imp inh | ALR inh | LANA-H2B inh
O=C(NCCOC(=O)c1c(F)cccc1Cl)c1c(F)cccc1Cl | 6.2 | -7 | 3 | -3% | ? | -7 | 0.4
CCC1CN(C(=O)NCc2ccc(F)cc2)c2cc(Cl)ccc2O1 (stereo not given) | -0.2 | 12 | -2 | -4% | 0.3 | -1 | 1.8
CCOC(=O)N1CCN(C(=O)c2ccc(OCC)c(OCC)c2)CC1 | 0.1 | 10 | 5 | -4% | 3.1 | -13 | -1.4
COc1ccc(-c2noc(C3CCCN(C(=O)c4cccc(F)c4)C3)n2)cc1 (stereo not given) | 6.2 | 0 | -4 | . | -15 | -10 | 1.5
CCN(CC)c1nc(N)c2c(N)n(-c3ccccc3C)c(=S)c(C#N)c2c1C#N | 6.9 | 7 | -7 | -3% | 1.2 | 22 | 1.1
O=C(Nc1nnc(-c2ccccc2Cl)s1)C1CCN(S(=O)(=O)c2ccc(Cl)cc2)CC1 | 2.4 | -15 | 3 | -7% | -2.9 | -4 | -2.5
O=C(/C=C/c1ccccc1)NCCc1c[nH]c2ccccc12 | 2.2 | 2 | 16 | . | 0.2 | -3 | -0.9
COC(=O)c1ccc(NC(=S)NC(=O)c2c(-c3ccccc3)noc2C)cc1 | 8.3 | -5 | 26 | . | 1.6 | 4 | -0.5
O=C(COc1cccc(Cl)c1)N/N=C\c1cc2ccccc2nc1Cl | 1.2 | -2 | ? | 10% | 1.8 | -3 | 6.1
Cc1ccc(S(=O)(=O)N(C)C)cc1NC(=O)COC(=O)Cc1cccs1 | 5.1 | -3 | -2 | 0% | . | -12 | -2.4
CCN(CC)CCCn1c(=S)[nH]c2cc(Cl)ccc2c1=O | 3.1 | 2 | -10 | 1% | -5.7 | 64 | -3.5
CC1=C(C(=O)OC(C)C)C(c2cccc(F)c2)n2ncnc2N1 (stereo not given) | 1.3 | -3 | 2 | -2% | -2.1 | 1 | 2.5
CN1C(C(=O)NCc2ccco2)CC2Cn3c(nc4ccccc43)C21 (stereo not given) | 0.8 | 41 | -5 | . | -0.6 | . | 0.5
COc1ccc(CCn2nnnc2C(c2ccc(Cl)cc2)N2CCN(C)CC2)cc1OC (stereo not given) | 1.2 | -1 | -8 | 5% | -1.9 | -12 | 3.1
O=C(Nc1ccccc1)N1CCN(Cc2ccc(Cl)cc2)CC1 | -4.2 | -5 | -11 | 0% | 1.0 | 3 | -1.1

# The list goes on:
structure | HNF4A DNA FP | B2AR ag | Calb FLC | Vif TR-FRET | RanGTP-Imp inh | ALR inh | LANA-H2B inh
CCCOC(=O)c1cc(=O)[nH]c2ccccc12 | 0.5 | -2 | -10 | -8% | -4.1 | -2 | -3.5
Cc1ccc(C(=O)Nc2cccnc2)cc1S(=O)(=O)N1CCOCC1 | -0.1 | -1 | -15 | -3% | 0.6 | 4 | -0.4
Cc1cc(NC(=O)CSc2nnc(-c3cccnc3)n2Cc2ccccc2)no1 | 3.0 | 3 | -4 | . | ? | -4 | 1.3
CO/N=C/NC(=O)c1ccc([N+](=O)[O-])c(CS(=O)(=O)c2ccc(Cl)cc2)c1 | 2.1 | -8 | 4 | 5% | -2.2 | 100* | 3.6
COc1ccc(CCNC(=O)CSc2nncs2)cc1 | 1.8 | 1 | -2 | -3% | -1.3 | -6 | 1.5
CS(=O)(=O)c1ccc(Cl)c(NC(=O)CSc2nnc(-c3cccs3)n2N)c1 | -2.1 | -9 | . | -2% | . | 0 | i
CCOC(=O)c1cccc(NS(=O)(=O)c2c(C)[nH]c(C)c2C(=O)N2CCCC2)c1 | 1.9 | -7 | ? | . | ? | -7 | 1.0
O=C(CSc1ccc2nnc(-c3ccccc3)n2n1)N1CCCCC1 | 1.4 | -4 | ? | . | -3.5 | -22 | -2.0
Cn1cc(S(=O)(=O)NCc2ccc(Cl)cc2)c(=O)n(C)c1=O | 0.8 | 5 | 0 | 1% | -1.3 | -1 | 2.9
O=C(NCCOc1ccccc1)c1cncc(Br)c1 | -0.5 | 1 | 2 | 8% | -3.5 | -12 | -0.2
Cc1cc(C)n(CCN(C)c2nc3nonc3nc2N2CCCCC2)n1 | 0.4 | 9 | -5 | . | 3.2 | -1 | -4.2
O=C(CSc1nnc(-c2ccc3c(c2)OCCO3)o1)NC1CCCCC1 | . | . | 4 | . | -2.2 | . | 2.7
COc1ccc2c(=O)cc(-c3ccncc3)oc2c1OC | -0.2 | 2 | . | -3% | . | . | .
O=c1c2ccc(Cl)cc2[nH]c(=S)n1CCCN1CCOCC1 | -5.5 | -15 | -1 | -2% | 2.2 | 95* | 0.1
O=C1C=C(NCc2ccc(Cl)cc2Cl)C2(CCCCC2)O1 | -1.4 | 6 | -6 | 0% | -1.1 | . | 0.4

# The results go on:
structure | HNF4A DNA FP | B2AR ag | Calb FLC | Vif TR-FRET | RanGTP-Imp inh | ALR inh | LANA-H2B inh
O=C(NCc1ccccn1)c1cccc(NS(=O)(=O)c2cccc(Cl)c2)c1 | 0.4 | 5 | 4 | 11% | 2.8 | -3 | 0.1
CCN(Cc1ccccc1)S(=O)(=O)c1ccc(C(=O)N(CCCN(C)C)c2nc3ccc(F)cc3s2)cc1 | 2.1 | 26 | 0 | . | 2.8 | -21 | 2.0
Cc1cccc(C#Cc2ccccc2)n1 | 2.5 | -9 | . | . | . | -31 | 2.1
O=C(O)C1CC(=O)N(C2CCCCCC2)C1 (stereo not given) | -1.4 | -1 | . | 18% | . | -14 | 5.6
Cc1ccc(C(c2cc(Br)ccc2O)N2CCSCC2)cc1 (stereo not given) | -2.0 | 0 | 12 | . | 2.5 | . | -5.2
COC(=O)C1=C(C)N(Cc2ccccc2)C(=O)N[C@H]1c1cccs1 | 9.6 | 5 | -2 | 5% | 1.5 | 4 | -2.0
CCC(=O)N1CCc2cc(S(=O)(=O)NCCC(=O)N3CCN(c4cccc(C)c4)C(C)C3)ccc21 (stereo not given) | 3.3 | -20 | -33 | . | 4.2 | 98* | 0.7
CN1C(=O)C(C)(C)c2cc(S(=O)(=O)N3CCCCCC3)ccc21 | -3.9 | -6 | 4 | . | -2.9 | -1 | 3.4
CCOc1ccc(Br)cc1S(=O)(=O)Nc1ccc(C(=O)Nc2ccccc2OC)cc1 | 2.2 | 1 | 7 | -1% | -3.4 | -1 | -1.8
CN(C)c1ccc(C(CNS(=O)(=O)c2ccc(F)c(F)c2)c2c[nH]c3ccccc23)cc1 (stereo not given) | 0.0 | 0 | 32 | 22% | 2.7 | -1 | 9.0
CCN1CCN(C(=O)c2cc3cc4ccc(OC)cc4nc3s2)CC1 | 0.5 | 8 | 4 | -7% | 12 | . | 0.0
Cc1ccc(NC(=O)C2CCC(N3C(=O)C4CCCCC4C3=O)CC2)cc1 (stereo not given) | 1.6 | -3 | -3 | . | 4.5 | 1 | -4.3
CCN(CC)CCSc1nc2ccccc2c(=S)n1-c1ccccc1 | . | . | 7 | . | 2.7 | -4 | 3.5
CCCCn1nnnc1NCc1ccc(C)s1 | 1.9 | 0 | 10 | -11% | 2.0 | -5 | 5.1
c1ccc(-n2nnnc2CN2CCOCC2)cc1 | 1.3 | 10 | -26 | . | 3.7 | -2 | 4.7

# Next part:
# Under each structure – HNF4A DNA FP	B2AR ag	Calb FLC	Vif TR-FRET	RanGTP-Imp inh	ALR inh	LANA-H2B inh
Cc1cc(C)c2nc(SC(C)C(=O)NCC(=O)Nc3ccc(F)c(F)c3F)cc(C)c2c1 (stereo not given)
  -1.8	15	-3	.	-3.2	-16	3.2
CCCCNC(=O)C1CCC(CNc2nc(=S)[nH]c3ccccc23)CC1 (stereo not given)
  0.2	-9	-1	-6%	-1.7	46	-1.3
Cn1c(=O)c([N+](=O)[O-])c(NCc2ccccc2)c2ccccc21
  -0.6	-3	3	-4%	?	.	3.6
O=C(NCCc1ccccn1)c1cc2ccccc2o1
  3.6	7	0	.	-2.5	-3	0.6
COc1cccc(NC(=O)c2ccc3c(c2)N(CC(=O)N2CCOCC2)C(=O)C(C)(C)O3)c1
  1.8	-1	4	.	1.0	-10	-3.6
O=S(=O)(c1cnccc1N1CCN(/N=C/c2ccc(Br)cc2)CC1)N1CCCCC1
  4.7	2	3	2%	0.3	.	-4.0
Cc1cccc(N2CCN(C(=O)CCS(=O)(=O)c3ccc(Br)cc3)CC2C)c1 (stereo not given)
  -16	2	6	?	-2.3	72	4.4
CC(C)(S)[C@@H](N)C(=O)O
  3.2	-1	.	-8%	.	.	-2.7
Cc1sc2nc3n(c(=O)c2c1C)NC(=O)CC3
  -0.4	4	-2	23%	1.0	2	4.4
Cc1cc(-c2nnc(SCC(=O)c3ccc(Cl)cc3)o2)no1
  5.4	8	9	-22%	-1.0	-12	0.5
COc1cc(/C=C/C(=O)OCC(=O)NC2CCS(=O)(=O)C2)ccc1O (stereo not given)
  -3.3	6	-2	-5%	-0.5	.	0.9
CCN(CC)S(=O)(=O)c1ccc(Oc2ccc(S(=O)(=O)N(CC)CC)cc2)cc1
  -0.2	0	-7	-4%&1%	?	-6	-3.1
O=C(Nc1ccc(S(=O)(=O)N2CCCC2)cc1)C1CCCN1C(=O)c1cccs1 (stereo not given)
  2.2	-5	-10	-13%	0.4	-1	-7.4
CC(=O)Nc1ccc(C(=O)NCC2(N3CCCCC3)CCCCC2)cc1
  6.3	3	-8	.	-2.9	0	-0.6
O=C(OCc1cnc(Cl)s1)c1ccccc1Cl
  -2.1	11	-6	0%	4.2	.	.
CC(/C=N/Nc1nc2ccccc2[nH]1)=C\c1ccccc1
  -2.2	-18	-12	.	0.3	.	-4.2
O=C(NCC(=O)N1CCC2(CC1)NCCc1[nH]cnc12)c1ccc(F)cc1
  0.1	-1	-2	.	-3.1	.	7.7
COc1ccc(N2CCN(C(=O)CSc3nc4c(c(=O)n(C)c(=O)n4C)n3C(C)C)CC2)cc1
  -4.4	-4	?	5%&2%	0.5	42	0.6
COc1cccc(CNC(=O)c2ccc(OC)c(S(=O)(=O)NC3CCCC3)c2)c1
  1.3	3	-3	5%	-2.5	-10	0.9
